High-throughput results deposited in PubChem BioAssay by Johns Hopkins Ion Channel Center.
KCNQ2 inh: KCNQ2 potassium channel inhibitors, primary screen, cell-based, CHO-K1, FluxOR thallium flux, B-score (AID 2156); actives 1.1% (n = 310,000); B-score at 10 µM; 20 min; active compounds read low; only compounds with negative scores are shown here; some inactives read as strong as hits;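 active = fluorescence ratio B-score at most minus 3 library SDs, with starting brightness B-score within 2 library SDs, cut at about -5.5 in these data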
Target sequence (O88943 whole entry, looked up): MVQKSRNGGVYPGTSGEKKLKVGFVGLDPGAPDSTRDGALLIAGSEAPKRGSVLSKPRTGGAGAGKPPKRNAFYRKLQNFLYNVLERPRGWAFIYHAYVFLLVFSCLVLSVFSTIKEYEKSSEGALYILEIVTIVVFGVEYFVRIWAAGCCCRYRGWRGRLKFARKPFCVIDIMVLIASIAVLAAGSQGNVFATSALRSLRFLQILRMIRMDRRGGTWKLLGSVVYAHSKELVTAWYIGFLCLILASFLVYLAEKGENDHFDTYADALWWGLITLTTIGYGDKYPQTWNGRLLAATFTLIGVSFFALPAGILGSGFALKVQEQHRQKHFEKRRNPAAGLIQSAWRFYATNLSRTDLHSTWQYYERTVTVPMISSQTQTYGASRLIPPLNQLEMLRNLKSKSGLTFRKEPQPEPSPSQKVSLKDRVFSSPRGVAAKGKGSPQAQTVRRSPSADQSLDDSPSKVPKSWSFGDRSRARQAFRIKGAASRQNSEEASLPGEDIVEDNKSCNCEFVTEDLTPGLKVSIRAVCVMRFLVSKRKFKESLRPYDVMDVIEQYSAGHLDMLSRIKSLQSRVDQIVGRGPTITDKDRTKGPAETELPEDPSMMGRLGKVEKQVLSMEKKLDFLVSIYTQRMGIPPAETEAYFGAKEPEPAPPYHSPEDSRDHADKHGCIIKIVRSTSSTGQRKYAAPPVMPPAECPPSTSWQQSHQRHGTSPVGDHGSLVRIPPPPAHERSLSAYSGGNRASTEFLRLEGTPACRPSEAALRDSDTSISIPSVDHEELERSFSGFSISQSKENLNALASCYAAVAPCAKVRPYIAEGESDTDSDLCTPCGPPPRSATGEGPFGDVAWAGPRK
KCNQ2 inh baseline: second read-out of KCNQ2 inh, no call of its own (marks repeat the call); B-score; measured here: initial fluorescence intensity artifact check;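 brightness before thallium and not channel activity; 0 = typical well and far values either way flag optical interference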
* hit, by the source's call; i = inactive. Not all compounds are listed. The share of hits here may be higher or lower than overall.

item	KCNQ2 inh	KCNQ2 inh baseline	Structure
1	i	-1.7	CN(Cc1ccccc1)c1nc2c(c(=O)n(C)c(=O)n2C)n1CCSc1ncccn1
2	i	0.11	O=C(NCc1ccccc1)N1CCCC1
3	i	-0.64	NC1=C(O)C(=O)C(c2ccccc2)O1 (stereo unspecified)
4	i	1.2	O=C(CN1C(=O)NC2(CCCC2)C1=O)OCCOc1ccc(Cl)cc1
5	i	4.1	CCC(=O)Oc1ccc2c(c1)O/C(=C\c1ccco1)C2=O
6	i	0.68	CCc1nnc(NS(=O)(=O)c2ccc(NS(=O)(=O)c3ccccc3)cc2)s1
7	i	0.31	CCOc1cc(C(c2c(O)nc(SC)[nH]c2=O)c2c(O)nc(SC)[nH]c2=O)ccc1O
8	i	-0.46	Cc1nn(C)c(C)c1S(=O)(=O)N1CCCC(C(=O)N2CCN(c3ccc(Cl)cc3)CC2)C1 (stereo unspecified)
9	i	-1.7	COC(=O)C1=C(CSc2nc3c(cc2C#N)CN(C)CC3)OC(N)=C(C#N)C1c1ccccc1F (stereo unspecified)
10	i	3.2	CCc1nnc(NC(=O)c2cc(C)oc2C)s1
11	i	0.89	C/C(=N\O)C(C)(C)NC(=O)Nc1ccc(Cl)cc1
12	i	-1	CC(C)C[C@H](NC(=O)N1CCn2c1nc1ccccc12)C(=O)N[C@H](Cc1ccccc1)C(=O)O
13	i	2.2	Cc1cc(O)c(NC(=O)c2ccc(C)c([N+](=O)[O-])c2)cc1C
14	i	0.08	COc1cc(NC(=O)N2CCOCC2)cc(OC)c1
15	i	-0.29	COc1ccccc1-n1nnnc1SCC(=O)NC1CCCC1
16	i	1	O=[N+]([O-])c1cccc(-c2nnc(C3CC3)o2)c1
17	-5.8*	3.3*	O=C(c1cccc(-c2nnc(-c3ccccc3)o2)c1)N1CCCCCC1
18	i	1.7	Cc1ccccc1C(=O)O/N=C(\N)Cc1cccs1
19	-6.8*	-0.04*	O=P(c1ccccc1)(c1ccccc1)N(c1ccccc1)c1ccccc1
20	i	-0.09	C/C=C(\C)C(=O)N1CCC(C(=O)c2ccccc2)CC1
21	i	0.51	CCC1Oc2ccccc2N(CC(=O)NCCN2CCc3ccccc3C2)C1=O (stereo unspecified)
22	i	0.87	CC(=O)c1nc(N2C(=O)CC(Cc3ccccc3)C2=O)sc1C (stereo unspecified)
23	i	0.66	Cn1nnnc1SCC(=O)c1ccc2c(c1)OCCO2
24	i	-0.47	C=CCn1c(=O)c(C(=O)OCC)c(O)c2ccccc21
25	i	0.65	Cc1ccc2[nH]c(C(=O)N3CCCC(Nc4ccc(F)cc4)C3)cc2c1 (stereo unspecified)
26	i	0.16	Cc1cc(Nc2ccccc2)n(CCO)n1
27	i	-0.73	COc1ccc(NC(=O)Cn2nnc(C(=O)NCc3ccc4c(c3)OCO4)c2N)c(OC)c1
28	i	2.5	CCOC(=O)CC1C(=O)NCCN1C(=O)c1cc2c(=O)n3cccc(C)c3nc2s1 (stereo unspecified)
29	i	0.77	C=CCNC(=O)/C=C/c1ccc(C(C)C)cc1
30	i	-4	CC1(C)CC(=O)/C(=C(\O)c2ccccc2)C(=NCCc2ccccc2)C1
31	i	3.7	Nc1nnc(CCOc2ccccc2Cl)s1
32	i	-0.58	COc1ccc(NC(=O)/C=C/c2ccccc2[N+](=O)[O-])c(OC)c1
33	i	-1.4	Cc1nn(C(C)(C)C)c(C)c1/C=N/OC(=O)Nc1ccc(Cl)cc1
34	i	0.05	COc1cccc(N2CCN(C(c3ccccn3)c3nnnn3C(C)(C)C)CC2)c1 (stereo unspecified)
35	i	0.34	COc1cnn(-c2ccccc2)c(=O)c1SCc1ccc(Cl)cc1Cl
36	i	-0.78	O=C(c1cc(-c2cccs2)nc2ccccc12)N1CCN(c2ccccc2O)CC1
37	i	-0.26	COc1ccc(Cl)cc1NC(=O)CN1CCC(n2nnc3ccccc32)CC1
38	i	2.8	CCN(CC)C(=O)c1cccc(-c2ccc(OC)cc2)c1
39	i	-1.1	COc1cccc(-c2cn3nc(C)c(C)nc3n2)c1
40	i	0.17	CC(C)c1ccccc1NC(=O)COC(=O)c1ccc(Cl)c(S(=O)(=O)N2CCCCCC2)c1
41	i	0.14	CC(C)(C)C(=O)O/N=C(\N)c1ccc(-c2csnn2)cc1
42	i	0.77	COc1ccc2c(c1)c(C(=O)N/N=C/c1cccc(O)c1)c(C)n2C
43	i	-0.67	COc1ccc2nc(SC)c(C#N)cc2c1
44	i	0.69	CC1Nc2ncnc(N3CCN(c4ccccc4)CC3)c2N(Cc2ccc(Br)cc2)C1=O (stereo unspecified)
45	i	-1.8	CCN1C(=O)[C@H]2[C@@H](c3ccc(-c4ccc(Cl)c(Cl)c4)c(OC)c3)N[C@@](Cc3ccccc3)(C(=O)OC)[C@H]2C1=O
46	i	1.5	COC(=O)C(CC(C)C)NC(=O)CNC(=O)c1ccccc1C (stereo unspecified)
47	i	-1.8	CCc1ccccc1NC(=O)CN(C)C(=O)CSc1nc2cc(Cl)ccc2s1
48	i	-0.76	O=C(Cc1nnc(NC(=O)Nc2ccccc2)s1)Nc1ccccc1
49	i	-0.41	C=CCNc1nc(NCc2ccccc2)c(C#N)c2c1CN(C)CC2
50	i	0.03	CC(=O)c1cccc(S(=O)(=O)NC(C)C2CC3CCC2C3)c1 (stereo unspecified)
51	i	-0.13	CCOc1ccccc1-c1nc(-c2cc3ccccc3nc2OC)no1
52	i	0.35	N#Cc1ccc(-c2nc3ccccc3nc2-c2ccccc2)cc1C#N
53	i	1.4	O=C(COC(=O)c1ccccc1C(=O)c1ccccc1)NCCc1ccc(Cl)cc1Cl
54	i	-0.11	O=C(CCN1C(=O)c2ccccc2S1(=O)=O)Nc1ccccc1O
55	i	-0.13	CN1CCCN(C(=O)c2ccc(Br)s2)CC1
56	i	0.79	Cc1onc(-c2ccccc2)c1C(=O)NC(=S)NNC(=O)c1ccncc1
57	i	-1.9	Cc1nn(-c2ccccc2)c(N)c1N=Nc1cccc(S(=O)(=O)N2CCOCC2)c1
58	i	-0.34	CN(C(=O)CSC1=Nc2ccccc2C2=NC(c3ccccc3)C(=O)N12)C1CCCCC1 (stereo unspecified)
59	i	3.7	CN1CCN(C(=O)CSc2ccc(Cl)cc2)CC1
60	i	1.1	O=C1CC(N2CCCc3ccccc32)C(=O)N1c1ccccc1Cl (stereo unspecified)

Next section:
item	KCNQ2 inh	KCNQ2 inh baseline	Structure
61	i	-0.04	O=C(NCCc1ccccc1)C1(S(=O)(=O)c2ccc(Cl)cc2)CC1
62	i	0.55	CC(Sc1nc(N)c2c3c(sc2n1)CSC(C)(C)C3)C(=O)Nc1ccccc1 (stereo unspecified)
63	i	0.69	O=C(O)CCCC(=O)N1CCc2cc(S(=O)(=O)NCc3ccc(F)cc3)ccc21
64	i	-1.5	O=C(Nc1ccc(Br)cc1)C1OCCc2ccccc21 (stereo unspecified)
65	i	1.1	COc1cc(/C=N/Nc2nc3ccccc3s2)ccc1OC(=O)c1ccccc1F
66	i	0.82	CC(=O)Nc1ccc(Nc2nc(-c3sc(C)nc3C)cs2)cc1
67	-6.5*	-1.9*	O=C(OCC(=O)N(CCc1ccccc1)Cc1ccccc1)c1ccccc1NCCO
68	i	0.38	CC(C)C(CC(=O)N1CCCCC1)C1CCOC(C)(C)C1 (stereo unspecified)
69	i	0.34	O=C(NCCN1CCOCC1)c1cc(S(=O)(=O)NCCCN2CCCC2=O)ccc1Cl
70	i	0.76	O=C(NC1CCCCCC1)C1CC(=O)N(c2ccc(Cl)cc2)C1 (stereo unspecified)
71	i	0.64	COc1ccc(C(C(=O)NCC2CCCO2)N(Cc2ccc(F)cc2)C(=O)CNC(=O)c2ccco2)cc1OC (stereo unspecified)
72	i	0.15	COc1ccc(COCC(O)CN2CCc3ccccc3C2)cc1OC (stereo unspecified)
73	i	1.1	COc1cccc(C(=O)COC(=O)c2n[nH]c(=O)c3ccccc23)c1
74	-5.9*	0.05*	Cc1c(Cl)ccc2c(C(=O)Nc3cc(C(C)(C)C)on3)cc(-c3ccccn3)nc12
75	i	-2.5	Fc1cccc(-c2n[nH]c(=S)n2-c2ccccc2)c1

Nos. 61 to 63 from above:
item	KCNQ2 inh	KCNQ2 inh baseline	Structure
61	i	-0.04	O=C(NCCc1ccccc1)C1(S(=O)(=O)c2ccc(Cl)cc2)CC1
62	i	0.55	CC(Sc1nc(N)c2c3c(sc2n1)CSC(C)(C)C3)C(=O)Nc1ccccc1 (stereo unspecified)
63	i	0.69	O=C(O)CCCC(=O)N1CCc2cc(S(=O)(=O)NCc3ccc(F)cc3)ccc21

Continued:
item	KCNQ2 inh	KCNQ2 inh baseline	Structure
76	i	-0.4	Cc1ccccc1C1CC(c2ccccc2)Nc2ncnn21 (stereo unspecified)
77	i	-2	C=CCn1c(Sc2nncn2C)nc2c1c(=O)[nH]c(=O)n2C
78	i	-0.03	O=C(NC1CCCCC1)C1CCN(C(=O)c2ccc(-c3ccccc3)cc2)CC1
79	i	2.5	O=C(COc1ccccc1Cl)Nc1ccc(Cl)cn1
80	i	-1	Nc1c(C(=O)Nc2ccc3c(c2)OCCO3)nnn1Cc1ccc(Br)cc1
81	i	-0.74	CC1CCC/C(=N\NC(=O)COc2ccccc2Cl)C1 (stereo unspecified)
82	i	-0.26	CC(C)Nc1nc(NC(C)C)nc(C(=O)OCCO)n1
83	i	1.1	CC(C)CCN1CCN(CC(c2ccccc2)c2ccccc2)CC1CCO (stereo unspecified)
84	-6.1*	-1.1*	COc1cccc(-n2c(SCc3cc(=O)oc4cc(O)c(O)cc34)nc3ccccc3c2=O)c1
85	i	-2.1	CCOc1ccc(OCCCC(=O)N(C)CC(=O)Nc2ccc(N3CCOCC3)cc2)cc1
86	i	-0.04	Cc1cc(C(=O)CCC(=O)NCC2COc3ccccc3O2)c(C)s1 (stereo unspecified)
87	i	-0.1	Cc1c(C(=O)OCC(=O)N(C)c2ccccc2)oc2ccccc12
88	i	1.9	O=C(Cn1ccc([N+](=O)[O-])n1)NCC1CCCO1 (stereo unspecified)
89	i	0.45	CCn1c(=O)n(CC(=O)NCC2CCCO2)c(=O)c2c3c(sc21)CCCC3 (stereo unspecified)
90	i	0.52	Cc1ccc2[nH]cc(CCNC(=O)/C=C/c3ccco3)c2c1
91	i	1.1	Fc1cc(Br)ccc1NC(=S)Nc1ccccc1
92	i	-0.15	COC(=O)[C@H](CC(C)C)NC(=O)N1CCCCC1C (stereo partly specified)
93	i	-0.85	NC(=O)C1(N2CCCCC2)CCN(C(=O)CSc2nc3ccccc3o2)CC1
94	i	-1.4	CC(Oc1ccccc1)c1ccnn1S(=O)(=O)c1ccccc1 (stereo unspecified)
95	i	-1.6	CCOc1ccc(CCNC(=O)c2ccc(F)c(S(=O)(=O)N3CCOCC3)c2)cc1OCC
96	i	-0.63	COC(=O)c1sc2ccccc2c1NC(=O)c1ccc(S(=O)(=O)N2CCC(C)CC2)cc1
97	i	-3.4	CCOC(=O)C1=C(C)N=c2s/c(=C/c3cccc([N+](=O)[O-])c3O)c(=O)n2C1c1ccccc1 (stereo unspecified)
98	i	0.55	COC(=O)C1C(=O)C2=C(CC1C)NC(C)=C(C(=O)OC1CCCCC1)C2c1ccc(N(C)C)cc1 (stereo unspecified)
99	i	0.31	NC(=O)[C@@H]1CC2(CC(c3cccc(NC(=O)CC(c4ccccc4)c4ccccc4)c3)=NO2)CN1C(=O)COc1ccc(Cl)cc1 (stereo partly specified)
100	i	-0.65	COc1cccc2cc(CC(=O)c3ccc(C)cc3C)c(=O)oc12
101	i	-0.29	CCOc1ccc(/C=C2\SC(=S)N(CCC(=O)Nc3ccccc3C(=O)O)C2=O)cc1
102	i	1.5	COc1ccccc1C(=O)Nc1ccccc1SC
103	i	-0.7	COc1cc(/C=C/C(=O)O)cc(S(=O)(=O)N2CCCc3ccccc32)c1OC
104	i	-0.19	CCOc1ccc(-n2nc3cc(C)c(N)cc3n2)cc1
105	i	0.53	CN(C)CCNC(=S)Nc1ccc(Cl)cc1Cl

Values by screen from the entries so far:
Entries 49–54 in KCNQ2 inh: i, i, i, i, i, i

Copied from the list.
Reading for cpd 93 under KCNQ2 inh baseline: -0.85
Reading for cpd 102 under KCNQ2 inh baseline: 1.5
Reading for cpd 104 under KCNQ2 inh baseline: -0.19
Reading for cpd 103 under KCNQ2 inh baseline: -0.7

Some of these compounds in order of their number in KCNQ2 inh baseline, smallest number first:
item	KCNQ2 inh	KCNQ2 inh baseline	Structure
77	i	-2	C=CCn1c(Sc2nncn2C)nc2c1c(=O)[nH]c(=O)n2C
100	i	-0.65	COc1cccc2cc(CC(=O)c3ccc(C)cc3C)c(=O)oc12
68	i	0.38	CC(C)C(CC(=O)N1CCCCC1)C1CCOC(C)(C)C1 (stereo unspecified)

Following part
item	KCNQ2 inh	KCNQ2 inh baseline	Structure
106	i	-1.1	O=C(c1cc2ccccc2s1)N1CCN(c2ccccn2)CC1
107	i	-0.32	COc1ccccc1C1NC=C([N+](=O)[O-])C=C1[N+](=O)[O-] (stereo unspecified)
108	i	-0.78	COc1ccccc1NS(=O)(=O)c1cc(NC(=O)C(C)(C)C)ccc1N1CCOCC1
109	i	1	Oc1ccccc1-c1nc(NC2CCCC2)c2ccccc2n1
110	i	-0.25	CC1CCN(c2ncnc3nc[nH]c23)CC1
111	i	0.27	COc1cc2c(cc1OC)/C(=C/C(=O)c1ccc(OC)c([N+](=O)[O-])c1)NCC2
112	i	1.8	O=c1cc(CSc2ccccn2)nc(N2CCN(c3ccccc3)CC2)[nH]1
113	i	-0.49	CN1CCN(C(=O)/C(C#N)=C/c2ccc(F)cc2)CC1
114	i	0.09	COc1cc(OC)cc(C(=O)N2c3ccc(F)cc3CCC2C)c1 (stereo unspecified)
115	i	1.1	C=Cc1ccc(Cn2c(=O)n(CCCOC)c(=O)c3sccc32)cc1
116	i	-0.07	COc1ccc(CN2C(=O)c3cccnc3C2Nc2ccc(OC)c(Cl)c2)cc1 (stereo unspecified)
